# Source: PubChem BioAssay (several laboratories)
# Mtb hypoxia rep: PubChem AID 1159583. M. tuberculosis hypoxia-regulated fluorescent reporter, fluorescence. fluorescence inhibition, % (test concentration not listed). 300,000 tested, 0.1% active;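 active means 35 to 45% if threefold the growth effect, above 45% if 1.5-fold the growth effect; inactive means the rest, general growth blockers included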;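 further: wells of about 50 µL received 100 nL stock; 0% = vehicle wells and 100% = reference inhibitor wells; whole bacteria with a GFP reporter of the hypoxia response; strong numbers were not always called active; many hits fall short of the cut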
# RN4220 kill: growth inhibition of S. aureus RN4220, primary screen, OD600; 16 h; inhibition, % (no concentration beside the values); 330,000 tested, 0.33% active; AID 1259311, 2017;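 active means z-score of -3 or lower and OD600 up to 0.18 on both plates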;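 further: plate controls were untreated cells for no effect and reference antibiotic for full effect; stock transfer was 100 nL into about 80 µL; one replicate is shown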
# ugtP null kill: growth inhibition of ugtP-null S. aureus, primary screen, RN4220 ugtP deletion, OD600. 16 h; some inactives read as strong as hits. growth inhibition, % (no concentration beside the values). 330,000 tested, 0.54% active;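 active means z-score under -3 and OD600 up to 0.15 on both plates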;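 further: plate controls were untreated wells for no effect and antibiotic for full effect; wells of about 80 µL received 100 nL stock; the first replicate is given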
# PrP 5UTR inh: inhibition of PrP 5' UTR reporter expression; cell-based PrP 5' UTR mRNA reporter, plate reader; inhibition, % (test concentration not listed); 340,000 tested, 0.35% active; AID 488862, 2010;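 active means every replicate at 50% or more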;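 further: 0 = median of the neutral control wells; tested in H4 reporter cells; numbers are from one replicate; inactives centre near -14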
# Bead autofluor: counter-screen for toxin protease inhibitors: compound fluorescence; compound autofluorescence counterscreen, microsphere flow cytometry; active compounds read high; fluorescence intensity (test concentration not listed); 360,000 tested, 3.1% active;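 active means at least 3 SD above the mean of all compounds, about 16000 in these data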;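 further: 100 nL of 1 mM stock went into each well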
# BJeLR lethal: MLPCN primary cell-based screen for lethality selective to Ras in HRASV12 cells | BJeLR (HRASV12) viability, CellTiter-Glo ATP luminescence, 48 h; reference of the scale not given here | inhibition, % (no concentration beside the values) | 300,000 tested, 0.17% active;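 active means replicate mean above 50%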;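 further: 50 nL library stock added to about 25 µL; numbers are from one replicate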
# Mtb hypoxia rep growth: recorded beside Mtb hypoxia rep, whose call it bears; growth inhibition, %; measured here: M. tuberculosis growth (absorbance);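 0% = vehicle and 100% = reference antibiotic; read after six days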
# The depositor's hits bear a star; . = no result given.
# Fields – Mtb hypoxia rep | Mtb hypoxia rep growth | RN4220 kill | ugtP null kill | PrP 5UTR inh | Bead autofluor | BJeLR lethal
[1] COc1ccc2nc(C)cc(SCC(=O)N/N=C/c3ccccc3)c2c1
  . | . | . | . | -24.9 | 2095 | -0.7
[2] COc1ccc(C2=NS(=O)(=O)N(C)C(C(=O)N3CCC(C)CC3)=C2)cc1
  3.7 | 3.8 | -0.8 | -10.4 | -28.8 | 6005 | 4.6
[3] O=c1cc(N2CCCCC2)c(-c2ccccc2)nn1Cc1ccc(F)cc1
  4.8 | 10.3 | -0.6 | 10.2 | -14.7 | 4476 | 6.2
[4] COc1cccc2cc(C(=O)CS(=O)(=O)c3ccc(C)cc3)c(=O)oc12
  8.0 | 5.4 | 3.4 | 2.8 | -9.0 | 5871 | -4.6
[5] N#CC1=C(N)Oc2cc(N)ccc2C1C1CCCCC1 (centres undefined)
  . | . | 3.4 | 3.1 | -20.1 | 3640 | 16.6
[6] CCOC(=O)C(C)n1nc(-c2ccccc2)c2ccccc2c1=O (centres undefined)
  15.8 | 1.3 | 4.4 | 10.8 | -32.9 | 2679 | -2.1
[7] CCCOc1ccc(C=NNC(=O)CN(c2ccc(OCC)cc2)S(C)(=O)=O)cc1
  -4.1 | 6.2 | 5.6 | 16.6 | . | . | .
[8] CCOc1ccc(CCNC(=O)COC(=O)c2nc3nc(C)cc(C)n3n2)cc1OCC
  6.4 | -14.9 | -3.0 | -6.9 | -21.2 | 2099 | 0.7
[9] Cc1cc(C)cc(NC(=O)c2ccc(NC(=O)c3ccco3)cc2)c1
  6.8 | 4.4 | -0.7 | 1.7 | -12.2 | 5552 | 3.9
[10] O=c1c2c3nc4ccccc4nc3n(/N=C/c3ccccn3)c2ncn1-c1ccccc1
  . | . | . | . | -21.0 | 3273 | 5.8
[11] O=C(Nc1ccc(-c2nc3ccccc3o2)c(O)c1)c1cc(-n2cnnc2)ccc1Cl
  -6.4 | 4.9 | -13.1 | 10.8 | 1.4 | 21640* | 2.1
[12] CC(C)(C#N)C(C)(C)c1nn[nH]n1
  2.8 | 5.5 | 3.1 | 1.6 | -2.7 | 9902 | -6.1
[13] CCCC(c1nnnn1C(C)(C)C)N1CCN(c2ccccc2)CC1 (centres undefined)
  -4.1 | -5.7 | -0.5 | 14.0 | -18.0 | 4990 | 0.9
[14] CCOc1ccc(CCNC(=O)CS(=O)Cc2nc(-c3ccc(C)cc3)oc2C)cc1 (centres undefined)
  -5.1 | -1.8 | 1.6 | -1.1 | -14.2 | 5404 | 1.7
[15] Cc1cc(C)c2c(CN3CCN(Cc4ccccc4)CC3)cc(=O)oc2c1
  -13.5 | 5.6 | -0.4 | 1.5 | -19.5 | 3435 | 0.4
[16] O=S(=O)(c1ccc(NC(=S)NC2CC2)cc1)N1CCOCC1
  -0.8 | 2.2 | 0.4 | -0.6 | -11.9 | 5032 | 7.2
[17] O=C(Cn1c(=O)n(Cc2ccco2)c(=O)c2cc(Cl)ccc21)NCC1CCCO1 (centres undefined)
  . | . | 1.2 | 4.2 | -3.4 | 4506 | 0.0
[18] CC(=O)NC1(c2nnnn2CCOC(=O)Nc2ccc(Cl)cc2)CCCC1
  11.7 | 12.0 | 5.2 | -4.8 | -12.4 | 4035 | 1.4
[19] CN1CCN(c2ncc(CN3C(=O)c4ccccc4C3=O)s2)CC1
  -1.2 | -2.6 | 7.9 | 5.8 | -3.5 | 4441 | 7.6
[20] CCOc1ccc(CCNC(=O)C2CCN(c3nnc(-n4cccc4)s3)CC2)cc1
  11.3 | 9.4 | 6.4 | 10.5 | -9.5 | 5281 | 0.6
[21] O=C(Cn1cnc2ccccc21)NN=Cc1ccccc1
  10.8 | 5.0 | 4.0 | 4.3 | . | . | .
[22] S=C(Nc1cccc(Cl)c1)N1CCN(Cc2ccccc2)CC1
  5.1 | -2.0 | 2.0 | -0.6 | -8.7 | 2426 | 3.4
[23] C(=N\N1CCN(c2ccccn2)CC1)/c1ccccn1
  . | . | . | . | -111.3 | 3704 | -2.7
[24] Cc1ccc(N/N=C(\C#N)C(=N)N2CCCCC2)cc1
  . | . | . | . | -45.1 | 4987 | 1.1
[25] COC12C(COC(N)=O)C3=C(C(=O)C(C)=C(N)C3=O)N1CC1C2N1C (centres undefined)
  . | . | 100.0* | 100.3* | 48.7 | 5752 | -19.1
[26] COc1cc(N/C(N)=N/c2nc(C)cc(C)n2)cc(OC)c1
  . | . | . | . | -8.6 | 3744 | 8.4
[27] Cc1ccc2nc(CCc3ccc(N)cc3)[nH]c2c1
  15.3 | 8.5 | 2.1 | 2.6 | -43.5 | 4143 | 6.7
[28] CCn1c(SCC(=O)N2CCOCC2)nc(O)cc1=O
  6.3 | 2.4 | 3.8 | 8.3 | -16.6 | 4872 | -14.9
[29] C=CCn1c(SCC(=O)NC2CCCCC2)nnc1-c1sc(N)nc1C
  . | . | -0.1 | 1.0 | -4.0 | 3046 | 3.1
[30] O=C(COc1ccc(Cl)cc1)NCCc1cnc[nH]1
  3.5 | 8.0 | -1.4 | -2.9 | -24.0 | 3721 | 2.5
[31] Cc1ccc(NC(=O)CCN2CCC(C)CC2)cc1
  0.6 | 17.9 | 3.3 | 4.2 | -9.5 | 3670 | -6.0
[32] N#CC1=C(N)n2c(s/c(=C\c3cccs3)c2=O)=C(C#N)C1c1cccs1 (centres undefined)
  . | . | . | . | -6.4 | 2912 | -0.6
[33] Nc1nc(CCl)nc(N(c2ccccc2)c2ccccc2)n1
  . | . | 2.8 | 5.6 | . | 5993 | 64.6*
[34] O=C(CSc1cccc[n+]1[O-])Nc1ccc(Br)cc1Br
  0.0 | 1.5 | 1.9 | 2.2 | 1.6 | 4311 | .
[35] O=C(Nc1cc(C(F)(F)F)ccc1-n1cncn1)c1ccc(Cl)cc1
  -3.1 | -6.5 | -5.4 | -2.5 | -8.9 | 4560 | -12.0
[36] O=C(NC1CC1)c1ccc2c(c1)N(Cc1ccccc1)CCS2
  9.8 | 6.6 | 2.2 | 3.1 | -9.2 | 4118 | 9.4

# 17 neighbouring records already listed, for reference:
# Fields – Mtb hypoxia rep | Mtb hypoxia rep growth | RN4220 kill | ugtP null kill | PrP 5UTR inh | Bead autofluor | BJeLR lethal
[17] O=C(Cn1c(=O)n(Cc2ccco2)c(=O)c2cc(Cl)ccc21)NCC1CCCO1 (centres undefined)
  . | . | 1.2 | 4.2 | -3.4 | 4506 | 0.0
[18] CC(=O)NC1(c2nnnn2CCOC(=O)Nc2ccc(Cl)cc2)CCCC1
  11.7 | 12.0 | 5.2 | -4.8 | -12.4 | 4035 | 1.4
[19] CN1CCN(c2ncc(CN3C(=O)c4ccccc4C3=O)s2)CC1
  -1.2 | -2.6 | 7.9 | 5.8 | -3.5 | 4441 | 7.6
[20] CCOc1ccc(CCNC(=O)C2CCN(c3nnc(-n4cccc4)s3)CC2)cc1
  11.3 | 9.4 | 6.4 | 10.5 | -9.5 | 5281 | 0.6
[21] O=C(Cn1cnc2ccccc21)NN=Cc1ccccc1
  10.8 | 5.0 | 4.0 | 4.3 | . | . | .
[22] S=C(Nc1cccc(Cl)c1)N1CCN(Cc2ccccc2)CC1
  5.1 | -2.0 | 2.0 | -0.6 | -8.7 | 2426 | 3.4
[23] C(=N\N1CCN(c2ccccn2)CC1)/c1ccccn1
  . | . | . | . | -111.3 | 3704 | -2.7
[24] Cc1ccc(N/N=C(\C#N)C(=N)N2CCCCC2)cc1
  . | . | . | . | -45.1 | 4987 | 1.1
[25] COC12C(COC(N)=O)C3=C(C(=O)C(C)=C(N)C3=O)N1CC1C2N1C (centres undefined)
  . | . | 100.0* | 100.3* | 48.7 | 5752 | -19.1
[26] COc1cc(N/C(N)=N/c2nc(C)cc(C)n2)cc(OC)c1
  . | . | . | . | -8.6 | 3744 | 8.4
[27] Cc1ccc2nc(CCc3ccc(N)cc3)[nH]c2c1
  15.3 | 8.5 | 2.1 | 2.6 | -43.5 | 4143 | 6.7
[28] CCn1c(SCC(=O)N2CCOCC2)nc(O)cc1=O
  6.3 | 2.4 | 3.8 | 8.3 | -16.6 | 4872 | -14.9
[29] C=CCn1c(SCC(=O)NC2CCCCC2)nnc1-c1sc(N)nc1C
  . | . | -0.1 | 1.0 | -4.0 | 3046 | 3.1
[30] O=C(COc1ccc(Cl)cc1)NCCc1cnc[nH]1
  3.5 | 8.0 | -1.4 | -2.9 | -24.0 | 3721 | 2.5
[31] Cc1ccc(NC(=O)CCN2CCC(C)CC2)cc1
  0.6 | 17.9 | 3.3 | 4.2 | -9.5 | 3670 | -6.0
[32] N#CC1=C(N)n2c(s/c(=C\c3cccs3)c2=O)=C(C#N)C1c1cccs1 (centres undefined)
  . | . | . | . | -6.4 | 2912 | -0.6
[33] Nc1nc(CCl)nc(N(c2ccccc2)c2ccccc2)n1
  . | . | 2.8 | 5.6 | . | 5993 | 64.6*
